RN4220 kill: growth inhibition of S. aureus RN4220, primary screen, OD600; inhibition, % (no concentration beside the values); 0.33% of 330,000 active; 16 h;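 active means z-score of -3 or lower and OD600 up to 0.18 on both plates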;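 further: plate controls were untreated cells for no effect and reference antibiotic for full effect; stock transfer was 100 nL into about 80 µL; one replicate is shown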
PrP UTR inh: inhibition of PrP 5' UTR reporter expression; 0.35% of 340,000 active; inhibition, % (concentration not given with the values); AID 488862, 2010; cell-based PrP 5' UTR mRNA reporter, plate reader;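 active means every replicate at 50% or more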;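 further: 0 = median of the neutral control wells; tested in H4 reporter cells; numbers are from one replicate; inactives centre near -14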
Mtb hypoxia inh: PubChem AID 1159583. M. tuberculosis hypoxia-regulated fluorescent reporter, fluorescence. fluorescence inhibition, % (concentration not given with the values). 0.1% of 300,000 active;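 active means 35 to 45% if threefold the growth effect, above 45% if 1.5-fold the growth effect; inactive means the rest, general growth blockers included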;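 further: wells of about 50 µL received 100 nL stock; 0% = vehicle wells and 100% = reference inhibitor wells; whole bacteria with a GFP reporter of the hypoxia response; strong numbers were not always called active; many hits fall short of the cut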
Bead autofluor: counter-screen for toxin protease inhibitors: compound fluorescence; compound autofluorescence counterscreen, microsphere flow cytometry; stronger effect = higher value; fluorescence intensity (concentration not given with the values); 3.1% of 360,000 active; AID 624483;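 active means at least 3 SD above the mean of all compounds, about 16000 in these data; inconclusive means too few beads counted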;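 further: 100 nL of 1 mM stock went into each well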
ugtP null kill: growth inhibition of ugtP-null S. aureus, primary screen, RN4220 ugtP deletion, OD600. 16 h; some inactives read as strong as hits. growth inhibition, % (test concentration not listed). 0.54% of 330,000 active. AID 1259309, 2017;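 active means z-score under -3 and OD600 up to 0.15 on both plates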;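 further: plate controls were untreated wells for no effect and antibiotic for full effect; wells of about 80 µL received 100 nL stock; the first replicate is given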
BJeLR viability: MLPCN primary cell-based screen for lethality selective to Ras in HRASV12 cells. AID 1554, 2009. inhibition, % (test concentration not listed). 0.17% of 300,000 active. BJeLR (HRASV12) viability, CellTiter-Glo ATP luminescence, 48 h; reference of the scale not given here;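 active means replicate mean above 50%; inconclusive means above 50% but judged a plate artefact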;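 further: 50 nL library stock added to about 25 µL; numbers are from one replicate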
Mtb hypoxia inh growth: further read-out of Mtb hypoxia inh, marked with its call; growth inhibition, %; measured here: M. tuberculosis growth (absorbance);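 0% = vehicle and 100% = reference antibiotic; read after six days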
* marks the source's active call; other numbers are inactive results; ? = inconclusive; . = not tested or not shown; & = joins results of further samples. Hits appear at their usual frequency; overall some 4% were active at least once.

Compound	RN4220 kill	PrP UTR inh	Mtb hypoxia inh	Mtb hypoxia inh growth	Bead autofluor	ugtP null kill	BJeLR viability
Cn1c(CN2CCCC2)nc2cc(NC(=O)c3ccco3)ccc21	-3.6	-59	13	2	5458	8	0
CCCCNc1c(-c2ccc(-c3cccc(Cl)c3)cc2)nc2ccccn12	1.0	-31	3	6	4180&6175	-35	-2
COc1ccc(C(=O)Oc2ccc(Br)cc2C(=S)N2CCOCC2)cc1	0.9	-5	-5	-1	4703	4	1
CCOc1ccc(OCCC(=O)N(CC)CC(=O)Nc2c(F)cccc2F)cc1	6.3	-39	11	5	3400	6	.
COc1cc2[nH]c(=S)n(C3CCN(Cc4ccccc4)CC3)c(=O)c2cc1OC	45	3	8	14	4119	2	3
NS(=O)(=O)c1ccc(NC(=S)NCCc2ccccc2)cc1	3.0	-25	1	5	3322	15	.
COc1ccc(-n2cc(-c3ccc(C)cc3)[n+]3c2SCC3)cc1	3.8	-12	13	3	2490	-10	12
Cc1nonc1NC(=O)CSc1nnc(N)s1	4.1	4	-2	1	5237	9	1

Going on with the list.
Compound	RN4220 kill	PrP UTR inh	Mtb hypoxia inh	Mtb hypoxia inh growth	Bead autofluor	ugtP null kill	BJeLR viability
O=C(CCCc1ccccc1)Nc1ccc(S(=O)(=O)N2CCOCC2)cc1	4.6	-2	-4	-2	4576	7	9
Cc1nc(-c2ccc(Cl)cc2)sc1C(=O)CBr	.	-3	.	.	2070	.	-3
COc1ccc(NC(=O)C2CCCO2)cc1 (configuration not stated)	1.5	-3	-10	6	4246	4	-1
COc1ccc(OCCCC(=O)Nc2nc(-c3ccccn3)cs2)cc1	-3.6	-36	9	12	4062	6	-4
CC(=O)c1ccc(S(=O)(=O)N2CCC(c3nc4ccccc4[nH]3)CC2)cc1	.	6	.	.	4033	.	6
Cc1c(NS(=O)(=O)c2ccc3c(c2)CCN3C(=O)C2CC2)c(=O)n(-c2ccccc2)n1C	2.7	-7	.	.	4917	3	-4
CN(CCOc1ccccc1)C(=O)C1CCC(=O)N(CCCN2CCOCC2)C1 (configuration not stated)	2.3	-19	4	-1	6162	2	-6
COc1cc(C(=O)NCc2ccccc2Cl)ccc1OCC(=O)N1CCOCC1	2.4	1	2	11	5241	4	.

Other results follow:
Compound	RN4220 kill	PrP UTR inh	Mtb hypoxia inh	Mtb hypoxia inh growth	Bead autofluor	ugtP null kill	BJeLR viability
O=c1c2ccccc2nc(/C=C/c2ccc3c(c2)OCO3)n1-c1cccc(O)c1	96*	-15	5	5	2263	93*	7
CCc1noc(C)c1C(=O)N(C)CC(=O)Nc1ccc(Cl)c(Cl)c1	2.5	-13	-4	-2	5756	-3	-1
CC1CCN(CC(O)CN2c3ccccc3Sc3ccccc32)CC1 (configuration not stated)	-3.7	.	4	0	3739	1	8
Cc1ccc(-n2nc(C)c3c(C(=O)OCC(=O)N(C)C4CCS(=O)(=O)C4)cc(-c4ccccc4)nc32)cc1 (configuration not stated)	-0.3	-7	5	-3	2795	-12	-11
COc1ccc(-c2ccc(S(=O)(=O)n3nc(OC(=O)c4cccs4)cc3N)cc2)cc1	5.1	-17	2	-5	2953	9	3
Cc1ccc(S(=O)(=O)N(C)c2ccc(OC(=O)c3ccc(=O)[nH]c3)cc2)cc1	4.5	-15	11	-1	3288	2	4
CC(=O)Nc1ccc(SCC(=O)NCC2(N3CCCCC3)CCCCC2)cc1	-1.2	-21	1	8	4722	6	.
O=C(c1ccc2c(c1)OCO2)C1CCCN(CC2CCCCC2)C1 (configuration not stated)	-0.5	-6	3	0	4685	6	2

Continued.
Compound	RN4220 kill	PrP UTR inh	Mtb hypoxia inh	Mtb hypoxia inh growth	Bead autofluor	ugtP null kill	BJeLR viability
Cc1cccc(N2CCN(C(=O)/C=C/c3ccco3)CC2)c1C	-0.8	-22	3	9	2645	12	-8
Nc1ccccc1O	9.4	-16	.	.	5643	-5	.
c1ccc(C2CC3CC(c4ccco4)N2O3)cc1 (configuration not stated)	2.6	-6	3	11	3946	2	-3
COc1ccc(/C=C/C(=O)Nc2ccc3c(c2)OCCO3)cc1OC	-4.7	-11	-2	12	1805	-1	7
COc1ccccc1C(=O)N(C)c1nnc(-c2ccccc2)s1	-3.8	-41	21	8	4750	9	-1
CCOC(=O)c1sc2nc(C)[nH]c(=O)c2c1C	1.0	-21	5	-4	4833	-2	-2
O=C(NCc1ccc2[nH]c3c(c2c1)CCCC3)c1ccc(S(=O)(=O)N2CCCC2)cc1	-5.8	-18	3	9	6095	0	-17
COc1ccc(S(=O)(=O)c2ccc(OC)cc2)cc1	12	-11	.	.	3075	12	3

The listing continues:
Compound	RN4220 kill	PrP UTR inh	Mtb hypoxia inh	Mtb hypoxia inh growth	Bead autofluor	ugtP null kill	BJeLR viability
CC1CC(NC(=O)CC#N)CC(C)(C)C1 (configuration not stated)	3.8	-20	12	14	4926	8	-8
O=C(Nc1c(C(=O)Nc2ccccc2)cnn1-c1ccccc1)c1ccco1	5.6	-16	17	5	10989	8	1
CC(NS(=O)(=O)c1ccccc1Cl)C1CC2CCC1C2 (configuration not stated)	2.0	-4	0	12	6097	-4	-1
CC(Oc1ccccc1)C(=O)N=C1SC2CS(=O)(=O)CC2N1c1ccccc1 (configuration not stated)	-2.2	-16	7	-4	6131	2	5
CCO[C@@H]1OC(C(=O)Nc2ccccc2)=C[C@H](c2csc3ccccc23)[C@H]1CCCO	.	-10	.	.	4158	.	0
CCCCNc1cc(C)oc(=O)c1C(C)=O	5.4	-10	-4	2	21662*	-2	-3
Cc1ccc(C(=O)Nc2ccc3c(c2)OCCO3)o1	2.2	-27	5	1	4477	3	9
Cc1ccc(S(=O)(=O)N(C)CC(=O)Nc2cccc(C)n2)cc1	3.2	5	0	2	3504	-1	-4

(more compounds)
Compound	RN4220 kill	PrP UTR inh	Mtb hypoxia inh	Mtb hypoxia inh growth	Bead autofluor	ugtP null kill	BJeLR viability
CC(=O)Nc1ccc(NC(=O)C(C)OC(=O)C23CC4CC(CC(Cl)(C4)C2)C3)cc1 (configuration not stated)	8.2	-16	7	5	4095	-3	.
CC(O)C(=O)C1=Nc2c(nc(N)[nH]c2=O)NC1 (configuration not stated)	1.8	.	6	3	.	3	.
S=c1nc(-c2cc(Cl)ccc2Cl)[nH][nH]1	.	3	.	.	3661	.	-5
O=C(Nc1cc(C(F)(F)F)ccc1N1CCOCC1)c1ccc(Br)o1	11	-2	4	3	8313	9	-5
CC(C)(C)S(=O)(=O)N1C[C@H]2C(=CC[C@@H]3C(=O)N(c4ccccc4)C(=O)[C@@H]32)[C@H]1CCO	2.2	-29	-9	6	3649	3	.
Cc1nn(-c2ccccc2)c(Cl)c1C=NNc1nc2ccccc2[nH]1	4.4	.	15	-4	.	1	.
Cc1cc(C)n(CCN(C)Cc2nc(Cc3ccccc3F)no2)n1	2.8	-20	1	-1	4155	4	11
O=C(O)CCc1ccc(-c2ccccc2)n1CC(=O)O	1.2	-14	11	11	10276	-1	-13

Going on with the list:
Compound	RN4220 kill	PrP UTR inh	Mtb hypoxia inh	Mtb hypoxia inh growth	Bead autofluor	ugtP null kill	BJeLR viability
C=CCOc1ccc(C(CC)=NO)c(OC)c1	6.9	.	4	4	.	10	.
COc1cccc(C2OC(=O)c3ccccc3N2C(C)=O)c1OC(C)=O (configuration not stated)	4.3	-6	.	.	3312	10	4
O=C(NCC1CCN(S(=O)(=O)c2ccccc2)CC1)Nc1ccc(F)cc1	0.4	-29	5	14	5017	-1	2
CCN(C(=O)COC(=O)/C=C/c1cccc(Br)c1)C1CCS(=O)(=O)C1 (configuration not stated)	6.7	-12	3	4	4317	10	1
Cc1noc(/C=C/c2ccco2)c1S(=O)(=O)N1CCC(C(=O)N2c3ccccc3CC2C)CC1 (configuration not stated)	1.1	-22	-1	4	10250	-16	-2
CCc1ccc2oc(-c3cc(N=Cc4cccc(OC)c4O)ccc3O)nc2c1	0.7	.	3	6	.	1	-3
Cc1ccc2nc(-c3ccsc3)c(NC3CCCC3)n2c1	2.1	-20	.	.	5878	4	-1
N#Cc1c(-c2ccco2)nc(NCC2CCCO2)[nH]c1=O (configuration not stated)	2.9	-19	-27	-8	2886	-5	13

Overlap with the part before: two entries, followed by the next part.
Compound	RN4220 kill	PrP UTR inh	Mtb hypoxia inh	Mtb hypoxia inh growth	Bead autofluor	ugtP null kill	BJeLR viability
Cc1ccc2nc(-c3ccsc3)c(NC3CCCC3)n2c1	2.1	-20	.	.	5878	4	-1
N#Cc1c(-c2ccco2)nc(NCC2CCCO2)[nH]c1=O (configuration not stated)	2.9	-19	-27	-8	2886	-5	13
COc1ccccc1NC(=O)C1CCOC1=O (configuration not stated)	4.5	.	4	7	?	6	9
O=C(c1ccc(OCC2CCCO2)cc1)N1CCN(S(=O)(=O)c2cccc(F)c2)CC1 (configuration not stated)	1.7	-26	5	3	?	2	.
O=S1(=O)N=C(Nc2ccc(S(=O)(=O)N3CCCCC3)cc2)c2ccccc21	2.8	0	12	1	3081	10	8
COc1cccc(CC2(CO)CCN(C(=O)NC3CCCCC3)CC2)c1	9.9	-25	9	-1	4637	4	-3
CC(=O)NCCc1ccc(C(=O)COC(=O)C2CCCCC2)cc1	-3.1	72*	-3	2	3824	-1	.
O=c1oc2ccccc2c(NC2CCCCC2)c1NS(=O)(=O)c1ccc(F)cc1	1.2	-14	6	6	4857	-12	4
CCCN(C(=O)c1ccco1)c1nnc(-c2ccncc2)s1	4.2	-13	5	7	3189	-1	-3
CCN1CCN(C(=O)c2sc3nc(C)nc(N4CCC(C)CC4)c3c2C)CC1	3.8	-19	.	.	2190	1	3

(list continues)
Compound	RN4220 kill	PrP UTR inh	Mtb hypoxia inh	Mtb hypoxia inh growth	Bead autofluor	ugtP null kill	BJeLR viability
CCn1c(COc2cccc(C)c2)nnc1SCC(=O)CC(=O)Nc1ccccc1OC	4.3	-3	-9	-4	?	-16	.
CCc1nnc(NC(=O)[C@@H](NC(=O)c2cc(OC)cc(OC)c2)C(C)C)s1	9.3	-14	-10	-6	2034	13	-1
COc1cccc(C(C(=O)NC(C)(C)C)N(C(=O)CCC(=O)Nc2cc(C)on2)C2CC2)c1OC (configuration not stated)	-4.4	-15	5	5	3772	-4	9
COCCn1c(C)cc(C(=O)COC(=O)c2cncc(Br)c2)c1C	5.7	-112	0	-4	2149	4	-4
Cc1cccn2c(=O)c3cc(C(=O)N4c5ccccc5CC4C)n(C)c3nc12 (configuration not stated)	1.5	-12	-1	5	9785	-8	3
CCOC(=O)c1c(C)[nH]c2c1cc(O)c1ccccc12	7.6	-56	5	8	6405	-22	3
Cc1nc2scc(-c3ccco3)c2c(=O)n1/N=C/N(C)C	.	-14	.	.	11184	.	1
CC1CN(CC(=O)Nc2nc(-c3ccc(Cl)cc3)cs2)CC(C)O1 (configuration not stated)	.	-1	.	.	4451	.	-6

Next part:
Compound	RN4220 kill	PrP UTR inh	Mtb hypoxia inh	Mtb hypoxia inh growth	Bead autofluor	ugtP null kill	BJeLR viability
Cn1c(SCC(=O)Nc2ccccc2)nc(O)cc1=O	5.3	-9	9	9	9820	1	4
Cc1cc(C)c(C#N)c(SCC(=O)N2CCCCC2)n1	10	-9	7	12	4568	4	-5
CCOC(=O)c1c(NC(=O)COC(=O)c2ccc(O)cc2)sc(C(=O)NC)c1C	3.7	1	-2	-1	4370	13	6
Nc1c(C(=O)c2ccc(Br)s2)oc2ccccc12	-0.8	-68	8	8	3810	0	-2
CC(=O)Nc1ccc(NC(=O)c2ccc(OCc3c(C)noc3C)cc2)cc1	1.2	-18	9	6	3123	-2	.
